Source: PubChem (National Center for Advancing Translational Sciences (NCATS))
RE007 growth inh – less growth of the S. pombe RE007 Vpr strain | Potency, µM (series often up to 92.2 µM), for inactives: at the highest dose activity change, negative = less growth | S. pombe RE007 Vpr strain, BacTiter-Glo ATP luminescence, 24 h; control for the full effect not named in the record | 0.21% of 360,000 active; active = well fitted falling curve with a large enough effect; inconclusive = small, poorly fitted or top-dose-only effect; inactive = no such curve, though single readings can be large or run the other way;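 also: % is scaled to controls: 0 for no effect and ±100 for the full control effect; nearly all actives have a fitted effect of over 50% in size; the assay follows cell death caused by Vpr and the record does not say whether a fall means rescue or toxicity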
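Fission yeast RE007 carrying one integrated HIV-1 vpr copy, seeded at OD 0.01 in PMG+AL medium with 23 nL pinned compound. Grown 24 h at 30 degrees; viability read by BacTiter-Glo luminescence after 5 min.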
Cruzain inh noDet – cruzain (T. cruzi) inhibition without detergent; P25779; 2.3% of 200,000 active; purified cruzain, Z-FR-AMC fluorescence, no detergent; AID 1476; Potency, µM, inactives show max response, negative = inhibition, most hits filed as inhibitors;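 also: plate controls were enzyme without inhibitor for no effect and buffer without enzyme for full effect; nearly all actives have a fitted effect of over 40% in size; top concentration of the series not given in the record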
Target sequence (P25779 123-467 limits assumed): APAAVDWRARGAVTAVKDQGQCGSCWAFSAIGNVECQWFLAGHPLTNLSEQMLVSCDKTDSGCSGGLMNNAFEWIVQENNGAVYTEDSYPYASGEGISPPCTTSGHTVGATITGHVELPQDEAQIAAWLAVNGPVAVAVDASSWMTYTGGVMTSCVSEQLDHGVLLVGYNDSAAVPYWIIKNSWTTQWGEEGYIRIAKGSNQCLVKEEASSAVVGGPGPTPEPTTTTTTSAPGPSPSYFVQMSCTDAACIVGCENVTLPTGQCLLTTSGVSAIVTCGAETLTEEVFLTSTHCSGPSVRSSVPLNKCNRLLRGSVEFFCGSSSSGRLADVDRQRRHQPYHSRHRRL
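Detergent-free condition (0.00005% Triton X-100) in acetate buffer pH 5.5 with DTT. 1.5 nM enzyme and compound were pre-mixed 15 min, then 2 uM Z-FR-AMC substrate added; reaction progress from fluorescence change between first and third reads (60 s).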
NS1 inh – blocks influenza NS1 protein function | S. cerevisiae slowed by influenza A NS1, growth recovery by OD600 | Potency, µM (titrated, usually from 46.1 µM), without a hit: at the top dose activity, positive = more growth | 0.4% of 270,000 active; active means well fitted rising curve with a large enough effect; inconclusive means small, poorly fitted or top-dose-only effect; inactive means no such curve, though single readings can be large or run the other way; also: nearly all actives have a fitted effect of over 50% in size
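S. cerevisiae expressing influenza A NS1, grown in glucose, washed, then diluted 1:100 into pH 6.0 -URA galactose medium with 23 nl compound. Growth recovery read as OD600; NS1-free strain serves as control.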
StopGo reporter – FMDV 2A StopGo reporter, luciferase signal; AID 1159524; Potency, µM (doses to about 57.9 µM), for inactives: at the highest dose signal change, negative = less light; human cells with a luciferase reporter of 2A StopGo recoding; control for the full effect not named in the record; 1.2% of 410,000 active; active = well fitted falling curve with a large enough effect; inconclusive = small, poorly fitted or top-dose-only effect; inactive = no such curve, though single readings can be large or run the other way; tested in HEK293T cells; also: % is scaled to controls: 0 for no effect and ±100 for the full control effect; nearly all actives have a fitted effect of over 45% in size; luciferase light after 4 h
Cruzain Triton – blocks cruzain activity in presence of Triton detergent; 0.43% of 200,000 active; purified cruzain, Z-FR-AMC fluorescence, 0.01% Triton; Potency, µM, without a hit: max response, negative = inhibition, actives largely listed as inhibitors; P25779; AID 1478;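 also: plate controls were neutral wells for no effect and buffer without enzyme for full effect; nearly all actives have a fitted effect of over 40% in size; top concentration of the series not given in the record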
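15 min RT preincubation of 1.5 nM cruzain with compound, then 2 uM Z-FR-AMC added; kinetic AMC fluorescence, 60 s delta. Triton X-100 0.01%, pH 5.5.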
MARV entry inh – inhibitors of Marburg virus binding or cell entry | Potency, µM (series often up to 37.8 µM), for inactives: top-dose activity change, negative = inhibition, usual class: inhibitors | Marburg virus pseudotyped entry inhibition, cell reporter; control for the full effect not named in the record; about a third of the inactives were read at about 46 µM | 1.8% of 300,000 active; active = well fitted inhibition curve with a large enough effect; inconclusive = small, poorly fitted or top-dose-only effect, or effect the other way; inactive = flat fitted curve, though single readings scatter; tested in HEK293 cells; about a fifth of its hits are not listed in these tables; also: % is scaled to controls: 0 for no effect and ±100 for the full control effect; luciferase read-out
SARS PLP yeast – inhibitors of SARS-CoV papain-like protease in yeast | Potency, µM (doses to about 32.9 µM), for the others: at the highest dose activity, positive = growth rescue | 0.19% of 330,000 active | S. cerevisiae expressing SARS-CoV PLpro, growth rescue; control for the full effect not named in the record; active means well fitted rising curve with a large enough effect; inconclusive means small, poorly fitted or top-dose-only effect; inactive means no such curve, though single readings can be large or run the other way; also: 0% is about no effect; nearly all actives have a fitted effect of over 55% in size; growth read by luminescence after 48 h
Lassa entry inh – Lassa virus entry inhibition; Lassa virus pseudotype entry inhibition, cell reporter; control for the full effect not named in the record; Potency, µM (doses to about 37.9 µM), for inactives: at the top dose activity change, negative = inhibition, most hits filed as inhibitors; 1.2% of 300,000 active; AID 540256; active means well fitted inhibition curve with a large enough effect; inconclusive means small, poorly fitted or top-dose-only effect, or effect the other way; inactive means flat fitted curve, though single readings scatter; tested in HEK293 cells; also: % is scaled to controls: 0 for no effect and ±100 for the full control effect; nearly all actives have a fitted effect of over 50% in size; luciferase read-out
Active calls of the source: *; ? = inconclusive; · = no result given; [ ] = remark or other dose. Unless noted, calls follow the shape of the dose curve; as a rule, active = well fitted curve in the direction sought with a large enough effect; inconclusive = small, poorly fitted or top-dose-only effect, or another doubt; inactive = no such curve, though single readings can be large; an effect the other way counts as inactive or inconclusive. Potency is read from the fitted curve at half-maximal effect.

Under each structure: Lassa entry inh | RE007 growth inh | StopGo reporter | Cruzain Triton | MARV entry inh | NS1 inh | SARS PLP yeast | Cruzain inh noDet
COc1cc(/C=C/C(=O)c2cccc([N+](=O)[O-])c2)cc(OC)c1OC
  ? | -18% | 28µM* | -7.0% | ? | -5% | 4% | 8%
COc1ccccc1C(=O)NNC(=O)c1ccc(C)cc1
  14% | -18% | 47%[activator] | · | 7% | -16% | -3% | ·
O=C(CCCc1nc(-c2ccco2)no1)Nc1ccccc1[N+](=O)[O-]
  -10%[46.1 µM] | · | 5% | -5.4% | 8%[46.1 µM] | · | · | -2%
CC(C)c1nc(SCC(=O)Nc2nc3c(s2)CCCC3)c2ccccc2n1
  ? | 7% | · | -5.5% | ? | -2% | -11% | -6%
CCn1c(=O)n(CC)c2cc(N3CCCC3)c(NC(=O)c3cccc(Cl)c3)cc21
  · | -7% | ? | · | · | 1% | -9% | ·
COc1ccc(S(=O)(=O)N2CCC(C(=O)NCCCc3ccccc3)CC2)cc1
  -14%[46.1 µM] | 1% | -15% | · | -22%[46.1 µM] | -8% | -5% | ·
CCC(=NCc1ccco1)c1c(O)n(-c2ccc(OC)cc2)c(=O)[nH]c1=O
  1.6µM* | -3% | -8% | 1.5% | 11%[46.1 µM] | -3% | -2% | 0%
Cn1c(SCC(=O)N2CCCCCC2)nc2c(c1=O)SCC2
  · | 15% | -21% | · | · | -1% | 0% | ·
O=C(C1=C(O)C(=O)N(Cc2ccco2)C1c1cccnc1)c1cc2ccccc2o1 (configuration not stated)
  0% | 3% | -24% | -2.5% | 0% | 2% | 16% | -6%
COc1ccc(NC(=O)Nc2ccc(OCc3ccccc3)cc2)cn1
  · | -8% | -26% | · | · | 5% | -2% | ·
COc1ccc(CC(O)CC2c3c(cc4c(c3OC)OCO4)CCN2C)cc1 (configuration not stated)
  · | -3% | -3% | · | · | 2% | 1% | ·
COc1ccc(N(Cc2ccccc2)N=O)cc1
  11%[46.1 µM] | -7% | -12% | · | 12%[46.1 µM] | 12% | 0% | ·
O=C(O)c1ccc2oc(=O)c(S(=O)(=O)c3ccccc3)cc2c1
  · | 6% | -18% | · | · | -2% | -1% | ·
O=S(=O)(c1cnccc1N1CCN(CCO)CC1)N1CCCCC1
  8% | 0% | -10% | · | -1% | 3% | -3% | ·
CN(NC1OC(=O)c2ccccc21)c1ncc(Cl)cc1C(F)(F)F (configuration not stated)
  -24% | 14% | 2% | · | ? | -41% | -1% | ·
CC#CCCC(=O)N1C=Cc2ccccc2C1C#N (configuration not stated)
  -1% | -9% | -17% | 2.7% | -2% | -3% | -13% | 8%
COc1ccc(C(=O)C2CCN(C(=O)Nc3ccc(C)cc3)CC2)cc1
  ? | 31% | 14% | · | -16%[46.1 µM] | -68% | 1% | ·
Cc1nn(S(=O)(=O)N2CCCCC2)c(C)c1Br
  -5% | 2% | 7% | -1.4% | 28% | -4% | 1% | -5%
O=C(c1ccccc1)c1ccc2nc(-c3ccco3)c(-c3ccco3)nc2c1
  ? | -3% | 2% | · | -23%[46.1 µM] | 8% | -2% | ·
CN(CC(=O)Nc1ccccc1Cl)S(=O)(=O)c1ccc(C(=O)N2CCOCC2)s1
  -2%[46.1 µM] | · | -31% | 1.3% | · | · | · | 8%
CCOC(=O)N1CCN(C(=O)c2cc3c(=O)n4ccccc4nc3s2)CC1
  9% | -7% | 6% | · | 2% | -11% | 0% | ·
CCCn1cc(CN2CCCC(C(=O)c3cccc(OC)c3)C2)c(C)n1 (configuration not stated)
  · | -16% | -5% | · | · | 6% | 0% | ·
CCOC(=O)c1ccc(N2C(=O)c3n[nH]c(C)c3C2c2ccc(OCC)cc2)cc1 (configuration not stated)
  ? | · | ? | -16% | ? | · | · | 3%
O=S(=O)(NCC(c1ccco1)N1CCN(c2ccccc2)CC1)c1ccc(F)cc1 (configuration not stated)
  1% | -19% | 17% | -6.8% | 0% | -23% | 11% | 13%
Cc1ccc(C(=S)N2CCCCCC2)cc1
  9% | 3% | -18% | · | 22% | 25% | 5% | ·
C[C@H](NC(=O)c1cc2cc(Cl)ccc2n1C)C(=O)N1CCC[C@H]1C(=O)O
  · | 4% | ? | · | · | 14% | -11% | ·
Cc1cc(C)n2ncc(C(=O)O)c2n1
  18% | -7% | 5% | · | 2% | 4% | 0% | ·
CN(CC(=O)NCCc1ccccc1)S(=O)(=O)c1ccccc1
  ? | 30% | 28% | · | -3%[46.1 µM] | · | 0% | ·
CN(CC(=O)Nc1ccc2c(c1)OCCO2)S(=O)(=O)c1ccc(Br)s1
  8% | 13% | -16% | 4.4% | 6%[46.1 µM] | -18% | 8% | -5%
CSc1ccccc1NC(=O)c1cccc(S(=O)(=O)N2CCN(C)CC2)c1
  -2% | 1% | -17% | · | -5% | -18% | -2% | ·
COc1ccccc1C(=O)NNC(=O)C1CC=CCC1 (configuration not stated)
  10%[46.1 µM] | 10% | 29% | · | ? | -14% | -15% | ·
CC(C)(C)c1nnc2sc(SCC(=O)c3ccc(Cl)cc3)nn2c1=O
  -2% | 1% | ? | -7.9% | -3% | 11µM* | -5% | -29%
N#Cc1c(NCCN)nc(NCc2ccccc2)c2c1CCN(Cc1ccccc1)C2
  7% | -10% | -17% | -1.3% | ? | 20% | -1% | 7.9µM*
CC(=O)c1ccccc1OCC(O)Cn1ccnc1 (configuration not stated)
  · | 14% | -11% | · | · | 2% | 1% | ·
CCN(CC)S(=O)(=O)c1ccc(OC)c(NC(=O)CCS(=O)(=O)Cc2ccccc2)c1
  ? | -9% | -12% | · | -1% | 10% | 0% | ·
CC(C)c1ccc(OC(=O)c2cc(-c3ccc4c(c3)OCCO4)on2)cc1
  7%[46.1 µM] | · | ? | -2.9% | 2%[46.1 µM] | · | · | -1%
Cc1onc(C(=O)NN)c1-c1csc(COc2ccccc2)n1
  · | 2% | 11% | · | · | 11% | -1% | ·
Cc1cc(NC(=O)CSc2nnc(-c3ccccc3)c(-c3ccccc3)n2)no1
  ? | 7% | ? | · | ? | -1% | -2% | ·
O=c1[nH]cnc2sc3c(c12)CCCC3
  10% | 17% | 17% | -2.9% | 8% | -7% | -4% | -21%
Cc1csc(SCC(=O)NC(C)C2CC3CCC2C3)n1 (configuration not stated)
  -2% | 2% | -27% | · | -12% | · | -2% | ·
CN(CCc1cnn(C)c1)Cc1cn(C)nc1-c1ccc2c(c1)OCCO2
  -3%[46.1 µM] | -13% | -6% | · | 10%[46.1 µM] | -1% | 1% | ·
COc1ccc(-c2oc3ncn4nc(-c5ccc(Cl)cc5)nc4c3c2-c2ccc(OC)cc2)cc1
  7%[46.1 µM] | · | -10% | -1.8% | 12%[46.1 µM] | · | · | 6%
CCCn1nc(C(=O)OCC(=O)c2c(N)n(C)c(=O)n(C)c2=O)c2ccccc2c1=O
  -1% | -5% | -22% | · | 1%[46.1 µM] | · | 1% | ·
Cc1csc(SC(C)c2nc3scc(-c4ccccc4)c3c(=O)[nH]2)n1 (configuration not stated)
  · | -1% | ? | · | · | -47% | 1% | ·
COc1cccc(CC(=O)Nc2nc(-c3ccc(OC)c(OC)c3)cs2)c1
  ? | 1% | 35µM* | · | ? | 16% | 4% | ·
CCN1CCN(C(=O)c2ccc(CN(c3ccc(C)c(C)c3)S(C)(=O)=O)cc2)CC1
  ? | -19% | 2% | · | -18%[46.1 µM] | 3% | 1% | ·
Cc1sc2ncnc(SCC(=O)c3ccc(O)cc3O)c2c1C
  · | 4% | -8% | · | · | -33% | -2% | ·
C[C@H]1CC[C@@]2(O[C@H](CCO)C[C@@H](O)[C@@H]2O)O1
  · | 11% | -5% | · | · | 2% | -1% | ·
Cc1ccc(Cn2c(=N)c(C(=O)NCc3ccco3)cc3c(=O)n4ccccc4nc32)cc1
  ? | -9% | -2% | -19% | 13µM* | 7% | 23% | ?
Clc1ccccc1-c1nn2c(-c3ccncc3)nnc2s1
  ? | -2% | -7% | 3.8% | 7.3µM* | -44% | 1% | -20%
O=C(NCCc1ccccc1)c1cc([N+](=O)[O-])ccc1N1CCOCC1
  -11%[46.1 µM] | 9% | -4% | · | ? | · | 3% | ·
COC(C/C=C/[C@@H](O)COCc1ccccc1)OC
  · | -5% | -1% | · | · | 3% | 0% | ·
Cc1ccc(S(=O)(=O)Nc2ccccc2/C=N/c2nc3ccccc3n2C(C)C)cc1
  ? | 9% | -12% | -4.4% | ? | -50% | -75% | -2%
Cc1ccc(NC(=O)/C=C/c2ccc(S(=O)(=O)N3CCOCC3)cc2)cc1S(=O)(=O)N(C)C
  ? | -5% | 35µM* | · | ? | · | · | ·
COc1ccc(S(=O)(=O)NC(C)C(=O)NCc2cccnc2)cc1OC (configuration not stated)
  0% | -8% | 5% | · | -17%[46.1 µM] | -5% | -4% | ·
CCN(CC)c1nc2c(-c3cccc(Br)c3)nnn2c2ccccc12
  9%[46.1 µM] | · | 39%[activator] | -3.0% | ? | · | · | -2%
C[C@@H](C(=O)OCC(=O)Nc1cc(S(=O)(=O)N2CCOCC2)ccc1Cl)N1C(=O)C2CCCCC2C1=O (some centres not stated)
  1% | 1% | -20% | 1.4% | ? | -5% | -8% | 22%
CCN(CC)CCNC(=O)c1ccc(Sc2ccc(C)cc2)c(NC(C)=O)c1
  -17% | -8% | -14% | · | ? | · | -3% | ·
OCc1ccc(O)c2ncccc12
  ? | -13% | -24% | -0.1% | ? | -77% | 5% | 1%
COc1ccccc1C(=O)NCCC(=O)NNC(=O)C1COc2ccccc2O1 (configuration not stated)
  -7% | 2% | -3% | · | -1% | · | 0% | ·

A few values from the results shown.
O=c1[nH]cnc2sc3c(c12)CCCC3 in Lassa entry inh = 10%
CCOC(=O)c1ccc(N2C(=O)c3n[nH]c(C)c3C2c2ccc(OCC)cc2)cc1 (configuration not stated) in Cruzain Triton = -16%
